# Compound activity as filed in PubChem.
# TRPML1 blocker = inhibitors of human TRPML1 channel | Q9GZU1 | TRPML1-inducible cells, Ca2+ dye fluorescence, FDSS; stronger effect = lower value; inhibition of EC80 agonist-evoked calcium signal | activity change, negative = inhibition, % (test concentration not listed) | 390,000 tested, 0.02% active; in the data active means activity change below about -50%; inconclusive means about -30% to -50%; inactive means above about -30%;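 also: stimulus is agonist 54-4 at its EC80 concentration; % is scaled to controls: 0 for no effect and ±100 for the full control effect; compound concentration not given in the record; the text of the record puts the active cut at -80%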
# Target sequence (Q9GZU1 whole entry, looked up): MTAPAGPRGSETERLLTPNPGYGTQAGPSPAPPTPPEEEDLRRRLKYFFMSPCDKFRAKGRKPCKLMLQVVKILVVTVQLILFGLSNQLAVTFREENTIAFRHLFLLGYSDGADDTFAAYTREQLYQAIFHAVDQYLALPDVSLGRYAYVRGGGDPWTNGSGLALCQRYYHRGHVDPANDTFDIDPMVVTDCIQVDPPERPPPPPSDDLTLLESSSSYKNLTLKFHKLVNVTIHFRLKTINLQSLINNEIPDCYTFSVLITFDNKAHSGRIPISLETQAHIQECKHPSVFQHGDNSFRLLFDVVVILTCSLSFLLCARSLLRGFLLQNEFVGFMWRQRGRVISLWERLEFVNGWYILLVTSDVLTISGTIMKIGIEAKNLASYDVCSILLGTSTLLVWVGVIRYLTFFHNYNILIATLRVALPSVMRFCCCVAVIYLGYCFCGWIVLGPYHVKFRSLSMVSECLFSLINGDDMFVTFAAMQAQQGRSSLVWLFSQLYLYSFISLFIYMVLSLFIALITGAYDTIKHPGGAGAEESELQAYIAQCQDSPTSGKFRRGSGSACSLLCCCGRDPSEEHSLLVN
#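 Calcium fluorescence in TRPML1-DL cells induced overnight with Tet: a 110 s read after compound pin addition, then a 110 s antagonist read after challenge with 54-4 at 4 uM final (EC80).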
# TRPV1 PAM = human TRPV1 potentiation; TRPV1-expressing cells, Fluo-8 calcium influx, capsaicin EC20 potentiation; host cell line not named in the record; control for the full effect not named in the record; AID 540277; Q8NER1; 320,000 tested, 0.02% active; potentiation, % at 8.33 µM; active means potentiation above 80%; inconclusive means 30% to 80%; inactive means below 30%; also: 0% is about no effect
#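 Fluo-8 calcium influx in TRPV1-expressing cells, kinetic read (ex 480/em 520 nm). Compound added and read 3 min for agonist activity, followed by capsaicin at EC20 final and 2 min further read for enhancement.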
# Menin-MLL FL inh = inhibitors of human menin-MLL interaction, wild-type MLL peptide; Fluorescence polarization, fluorescein-MLL peptide displacement from menin; FP activity change, % at 61.4 µM; 290,000 tested, under 10 active; inconclusive = falling polarisation curve, or a change in total fluorescence; inactive = total fluorescence flat and polarisation flat or rising; no compound was filed as active; the % refers to the polarisation; negative = inhibition;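 also: % of control where 0% means no effect; inhibitors lower the polarisation; unlabelled MLL peptide was the positive control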
# PINK1 expr mod = modulators of PINK1 expression; PINK1 immunofluorescence, high-content cytometry, 24 h; Potency, µM (series often up to 76.6 µM), for the others: top-dose activation (PINK1 increase), usual class: activators; 410,000 tested, 0.2% active; AID 624263; active = well fitted activation curve with a large enough effect; inconclusive = small, poorly fitted or top-dose-only effect; inactive = flat fitted curve, though single readings scatter; cell line not stated here;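 also: potency is read from the fitted curve at half-maximal effect; % of control where 0% means no effect; nearly all actives have a fitted effect of over 65% in size; a mitochondrial uncoupler was the plate control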
#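 Readout is PINK1 immunofluorescence, quantified alongside mitochondrial, cell and nuclear markers by laser-scanning microplate cytometry. Cells from a stable line were exposed to compound titrations (5 concentrations) for 24 hours, with CCCP controls.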
# Sfp inh = inhibitors of Bacillus subtilis Sfp phosphopantetheinyl transferase. Q9F4F7. Biochemical Sfp PPTase activity, qHTS. 310,000 tested, 3.5% active. Potency, µM, inactives show max response, negative = inhibition, usual class: inhibitors; active = well fitted inhibition curve with a large enough effect; inconclusive = small, poorly fitted or top-dose-only effect, or another doubt; inactive = no such curve, though single readings can be large or run the other way;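 also: the enzyme is Sfp with the accession as filed and its product quenches rhodamine fluorescence; potency is read from the fitted curve at half-maximal effect; 0% = enzyme reaction without inhibitor and -100% = no enzyme wells; top concentration of the series not given in the record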
#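 Compounds were incubated with enzyme (final 15 nM) for 15 min at room temperature before substrate addition started the reaction. Fluorescence at 525 nm excitation, 598 nm emission was recorded immediately and after 30 minutes.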
# ClpP mod = qHTS Assay for Activators of ClpP. ATP-dependent Clp protease proteolytic subunit (Bacillus subtilis (strain 168)), P80244. purified B. subtilis ClpP, FRET peptide cleavage, 20 min. Potency, µM (top dose mostly 57.5 µM), without a hit: at the top dose activity change, negative = active. 340,000 tested, 1.9% active. AID 651965, 2013; active = well fitted falling curve with a large enough effect; inconclusive = small, poorly fitted or top-dose-only effect; inactive = no such curve, though single readings can be large or run the other way; also: potency is read from the fitted curve at half-maximal effect; the source files actives as falling curves though it sought activators and does not explain the sign; nearly all actives have a fitted effect of over 65% in size; many hits overshoot -100%
# Target sequence (P80244 whole entry, looked up): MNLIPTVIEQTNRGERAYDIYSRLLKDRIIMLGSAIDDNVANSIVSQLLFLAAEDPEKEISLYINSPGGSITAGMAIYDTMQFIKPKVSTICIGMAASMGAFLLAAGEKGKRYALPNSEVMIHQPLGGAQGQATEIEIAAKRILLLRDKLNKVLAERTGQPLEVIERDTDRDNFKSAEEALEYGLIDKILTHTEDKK
#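 Buffer: 100 mM Tris/HCl pH8, 100 mM KCl, 0.05% low protease BSA, 2.5% glycerol, 0.01% Tween-20. ClpP 10 microg/mL final; 20 min RT; delta FRET normalized to ADEP and DMSO controls.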
# TRPML1 ag = agonists of human TRPML1 channel | activation, % (test concentration not listed) | TRPML1-expressing cells, Ca2+ dye fluorescence, FDSS; host cell line not named in the record; reference of the full effect not given here | 410,000 tested, 0.12% active; in the data active = activation above about 50%; inconclusive = about 30% to 50%; inactive = below about 30%; also: 0% is about no effect; the text of the record puts the active cut at 80%
#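 Calcium fluorescence on an FDSS kinetic reader gave the read-out. Tet-induced TRPML1-DL cells were plated overnight, dye-loaded (Ca8 with quencher, 45-90 min, room temperature, dark), then read 110 s after compound addition, and again 110 s after 4uM final 54-4 (EC80).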
# The depositor's hits bear a star; ? = inconclusive; . = not tested or not shown.
SMILES | TRPML1 blocker | TRPV1 PAM | Menin-MLL FL inh | PINK1 expr mod | Sfp inh | ClpP mod | TRPML1 ag
N#Cc1cc(Oc2ccc(Cl)cc2)c(N2CCOCC2)cc1C#N | -11 | . | . | 2.5% | . | . | 0.0
CN(C(=O)c1cc(COc2c(F)cccc2F)on1)C1CCOC1 (configuration not stated) | -6 | -11 | . | 1.3% | 12% | -1.1% | -0.3
COCc1cc(=O)c2ccccc2o1 | 30 | . | . | -0.5% | . | 0.5% | -0.3
Cc1occc1C(=O)NC(C)C12CC3CC(CC(C3)C1)C2 (configuration not stated) | 25 | -7 | 0.1 | 3.6% | 2% | . | -0.1
C[C@@H]1CN([C@H](C)CO)C(=O)CCCn2cc(nn2)CO[C@H]1CN(C)S(=O)(=O)c1ccccc1C#N | 8 | . | . | -0.5% | . | -2.1% | 0.0
CCCCn1c(N)c(N(CCOC)C(=O)COc2ccc(OCC)cc2)c(=O)[nH]c1=O | 9 | -1 | . | 0.2% | . | -2.5% | -0.1
CC(C)C[C@@H](CSc1ccc(Br)cc1)N1CCN(CCc2ccccc2)CCC1=O | 36 | 13 | 0.4 | ? | -6% | 0.6% | 2.6
CCOc1ccc(N(CC(=O)NCCSCc2ccccc2Cl)S(C)(=O)=O)cc1 | -18 | 6 | 3.2 | 0.2% | 3% | -1.8% | -1.5
COc1ccc(C(=O)N2CCN(Cc3ccc4c(c3)OCO4)CC2)cc1OC | . | 24 | 3.0 | -0.5% | ? | -0.5% | .
O=C(NC1CCCCC1)c1cc(F)cc2c1OCOC2 | -10 | -28 | -2.1 | -0.1% | -3% | . | 1.5
CCOc1ccc(/C(O)=C2/C(=O)C(=O)N(c3ccccn3)C2c2ccc(F)cc2)c(C)c1 (configuration not stated) | 3 | 5 | -0.3 | -0.1% | -11% | . | 2.1
COc1ccc(N2CCN(C(=O)CSc3nnc4c(C)cc5ccccc5n34)CC2)cc1 | 7 | 1 | 3.7 | 0.6% | 11% | -3.1% | -0.7
O=C(C1CCCN(Cc2ccc([N+](=O)[O-])cc2)C1)N1CCCCC1 (configuration not stated) | -5 | -8 | -0.2 | 1.8% | -15% | 1.2% | -0.7
CN1CCN(c2nc(C#N)cc(-c3ccccc3)n2)CC1 | 2 | -4 | 0.6 | 9.4% | -8% | -3.9% | 0.8
Cc1cccc(NC(=O)Nc2ccc(OCc3ccccc3)cc2)n1 | -6 | 4 | 3.2 | 6.2% | 18% | 0.7% | -0.6
COc1ccccc1C(O)c1ncc(-c2ccccc2C)[nH]1 (configuration not stated) | . | . | . | 0.9% | . | -1.0% | -1.1
CC(C)(C)OC(=O)N1O[C@H]2CC1[C@@H]1[C@@H]2N=NN1CCc1ccncc1 | 16 | . | . | -0.7% | . | 2.2% | -0.5
CC(=O)Nc1nc2ccc(S(=O)(=O)N3CCCC3)cc2s1 | 7 | -6 | . | -0.7% | -1% | -1.2% | -0.3
Cc1ccc(N2CC(C(=O)NCCC(C)C)CC2=O)cc1 (configuration not stated) | 4 | -3 | -0.5 | -3.8% | 5% | 1.2% | 0.0
Cc1ccc(NC(=O)C2CCCN(S(=O)(=O)c3ccc4c(c3)oc(=O)n4C)C2)cc1Cl (configuration not stated) | 9 | . | . | 1.5% | . | 1.5% | -0.4
COc1ccc(C(C)=O)cc1CN1C(=O)NC2(CCCCC2C)C1=O (configuration not stated) | -14 | 20 | 5.4 | 1.0% | 3% | -2.4% | 0.5
Cc1ccsc1CN(C)CC(=O)NCC(=O)Nc1ccc(F)cc1 | -7 | 2 | . | 2.1% | . | -0.2% | -0.5
O=C(NCCO)c1ccc2c3n(nc2c1)-c1ccc(Cl)cc1CO3 | 2 | ? | 1.5 | 4.6% | 89µM* | -17% | 0.3
CC(C)Oc1cc(F)ccc1-c1cc(C(=O)NCc2ccccc2)[nH]n1 | . | . | . | 1.5% | . | -1.3% | -1.0
Cc1cc(=O)n2c3ccccc3n(CC(O)CN3CCN(CCO)CC3)c2c1C#N (configuration not stated) | 10 | 11 | 6.6 | -0.1% | 11% | . | -0.2
O=C(c1cccnc1)N1CCN(c2ccc3ccccc3n2)CC1 | 13 | -6 | -0.7 | 2.1% | 25% | 4.5% | 0.7
Cc1ccc(NC(=O)C(C)OC(=O)c2ccc(NS(=O)(=O)c3ccc(F)c(F)c3)cc2)cc1 (configuration not stated) | 1 | 14 | . | 1.9% | 13% | -2.2% | 0.5
O=C(CN1CCN(S(=O)(=O)c2ccc(F)cc2)CC1)Nc1cc(C(F)(F)F)ccc1Cl | -8 | 3 | 0.6 | 13% | 9% | -1.5% | 1.3
FC(F)(Cl)c1nnc2ccc(Sc3ccccn3)nn12 | 0 | 1 | 3.9 | -2.5% | -9% | . | -0.1
CC1CCN(c2nnc(-c3ccccc3)c3ccccc23)CC1 | -4 | -22 | -3.4 | 22% | 8% | . | 0.9

# Three compounds from above, sorted by the value under Sfp inh, ascending:
compound	TRPML1 blocker	Menin-MLL FL inh	PINK1 expr mod	Sfp inh
O=C(CN1CCN(S(=O)(=O)c2ccc(F)cc2)CC1)Nc1cc(C(F)(F)F)ccc1Cl	-8	0.6	13%	9%
Cc1cc(=O)n2c3ccccc3n(CC(O)CN3CCN(CCO)CC3)c2c1C#N (configuration not stated)	10	6.6	-0.1%	11%
Cc1ccc(NC(=O)C(C)OC(=O)c2ccc(NS(=O)(=O)c3ccc(F)c(F)c3)cc2)cc1 (configuration not stated)	1	.	1.9%	13%

# Carrying on.
SMILES | TRPML1 blocker | TRPV1 PAM | Menin-MLL FL inh | PINK1 expr mod | Sfp inh | ClpP mod | TRPML1 ag
CC(C)c1ccc(/C=N/NC(=O)c2nnn(-c3nonc3N)c2CN2CCOCC2)cc1 | 7 | 2 | -3.4 | 0.4% | -1% | 0.1% | 0.6
CC1CN(C2CCCCC2)C(=S)N(c2ccccc2)C1=O (configuration not stated) | 2 | . | . | -3.5% | . | . | 0.9
COCCNC(=O)c1c(NC(=O)c2nc(SC)ncc2Cl)sc2c1CCCC2 | -28 | -1 | -3.8 | . | 11% | -1.8% | -0.1
CCCc1nc(SCc2ccccc2Cl)n[nH]1 | 5 | 7 | 1.9 | -0.8% | -6% | -0.7% | 1.5
Cc1ccc(Cl)cc1NC(=O)c1ccccc1OCC(=O)N1CCOCC1 | 2 | 4 | . | -0.4% | 18% | -5.0% | 1.3
COc1ccccc1N1CCN(CC(=O)Nc2ccc(CN3CCCCC3)cc2)CC1 | -4 | 16 | -1.4 | . | ? | -0.9% | 1.0
Cc1ccc(OCc2nnc(SC(C)C(=O)O)n2-c2ccccc2)cc1 (configuration not stated) | -3 | -6 | -3.2 | 1.7% | 14% | . | 0.6
Cc1ccc(N2CC(NS(=O)(=O)c3cc(F)ccc3F)CC2=O)cc1C (configuration not stated) | 10 | -3 | . | -5.5% | . | -4.6% | 0.7
CC(C)c1ccc(NC(=O)CCn2c(=O)c3cccn3c3ccccc32)cc1 | 17 | . | . | -0.9% | . | -9.1% | 4.7
Cc1nc2nc(NC(=O)c3ccc(C(C)(C)C)cc3)[nH]n2c(=O)c1C | -15 | . | . | 0.5% | . | -1.4% | -0.3
CCCCn1c(N)c(N(CCOC)C(=O)c2ccc(C)c(S(=O)(=O)N3CCOCC3)c2)c(=O)[nH]c1=O | -2 | 28 | . | -0.5% | . | -2.0% | 1.7
COc1ccc(-c2nnc(NC(=O)c3ccc4c(c3)OCCO4)o2)cc1 | 2 | -4 | 6.8 | 0.9% | 26% | -0.3% | -0.7
O=C(Cc1ccc(Cl)cc1)c1ccccc1 | 3 | . | . | -1.2% | . | . | 3.0
CCOc1cccc(OCCOCCn2cnc3ccccc3c2=O)c1 | -4 | -4 | 2.1 | 1.6% | 14% | -0.4% | -0.4
Cn1c(SCc2ccc(F)cc2)nc2ccc(C(=O)NCc3cccc(Cl)c3)cc21 | -19 | . | . | -0.5% | . | 2.0% | 1.8
COCCNc1ncnc2c1ncn2[C@H]1CN(CCOC)C[C@@H](CO)O1 | . | . | . | 2.7% | . | 4.1% | -0.4
CCCCCCCCCCOC(=O)Cn1c(COc2ccccc2OC)[n+](C)c2ccccc21 | 71 | -7 | 5.9 | -2.0% | 45µM* | . | 0.9
N#CCOc1ccccc1CNC[C@H]1O[C@@H](n2cnc3c(=O)[nH]c(N)nc32)[C@H](O)[C@@H]1O | -15 | . | . | 7.9% | . | -1.4% | -0.4
CSCCC(NC(N)=O)C(=O)Nc1cccc(S(=O)(=O)N2CCOCC2)c1 (configuration not stated) | 16 | 0 | 2.1 | 0.2% | 15% | . | -0.7
Cc1oc2ncnc(N3CCOCC3)c2c1C(=O)N1CCN(c2cccc(C(F)(F)F)c2)CC1 | 35 | . | . | -0.9% | . | -1.5% | 1.4
Cn1c(=O)[nH]c(=O)c2[nH]c(CN3CCN(Cc4ccccc4)CC3)nc21 | 12 | -5 | -4.2 | 0.7% | -28% | -2.9% | 0.0
CC(=O)NC(=S)Nc1ccccc1C(=O)Nc1ccccc1 | 28 | -2 | 1.4 | 0.3% | -14% | 33% | -0.4
CC1(c2cccc(Br)c2)NC(=O)N(CC(=O)Nc2ccc(S(N)(=O)=O)cc2)C1=O (configuration not stated) | -9 | -4 | -0.8 | -1.1% | 7% | . | -0.1
CCOc1ccccc1NC(=O)c1nnn(CC(=O)Nc2ccc3c(c2)OCO3)c1N | -6 | 7 | . | 4.9% | -4% | -15% | -0.5
Cn1cnnc1Sc1cc(N2CCN(S(=O)(=O)c3ccc4ccccc4c3)CC2)ccc1[N+](=O)[O-] | -10 | -8 | 1.3 | -1.0% | 1% | -4.4% | -0.1
CCC(C)NC(=O)c1ccccc1NC(=O)CN1C(=O)c2ccccc2S1(=O)=O (configuration not stated) | 10 | -3 | 2.4 | 0.4% | -10% | -2.9% | 0.1
O=C(O)c1ccc(Cl)c(S(=O)(=O)Nc2ccc(S(=O)(=O)Nc3cccc(Cl)c3)cc2)c1 | 4 | -7 | -2.5 | 1.4% | 16% | . | -0.1
O=C(COc1ccccc1Cl)N1CCN(c2ccc(F)cc2)CC1 | -1 | -15 | 1.5 | -0.3% | 4% | 2.5% | -1.2
CC(=O)COC(=O)C1CC(=O)N(c2ccc(C)c(C)c2)C1 (configuration not stated) | -5 | 2 | 0.6 | -0.7% | 6% | -1.5% | 4.0
Cc1occc1-c1nnc(SCC(=O)N2CCOCC2)n1CC(C)C | 2 | -3 | 1.3 | 1.7% | 5% | 1.0% | -0.7
